ID4 SMM = binders of human ID4 protein; calls only; 31,000 tested, 1.2% active; P47928; AID 624137; small molecule microarray, Flag-ID4 binding, fluorescence F/B;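 active = spot signal over background at p below 0.07 in all four prints; compounds were printed on slides so no solution concentration is given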;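 also: a binder raises fluorescence above local background on the spot; about 2 pmol printed per array spot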
Target sequence (P47928 whole entry, looked up): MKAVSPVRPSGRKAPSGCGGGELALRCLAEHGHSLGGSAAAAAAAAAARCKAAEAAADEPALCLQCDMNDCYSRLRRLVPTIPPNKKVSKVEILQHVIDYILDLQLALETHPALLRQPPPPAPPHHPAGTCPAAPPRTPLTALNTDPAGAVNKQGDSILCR
Calls only; i = inactive.

SMILES | ID4 SMM
O=C(CCc1nc(-c2ccccc2Cl)no1)Nc1cccc([N+](=O)[O-])c1 | i
Cc1cc(OCc2nc3ccccc3s2)ccc1NC(=O)Nc1cccc(Cl)c1 | i
CN1/C(=C\C=C2\C(=O)Oc3ccccc3C2=O)C(C)(C)c2ccccc21 | i
Cc1cc2c(=O)n(Cc3ccco3)c(SCC(=O)c3ccc(Cl)s3)nc2s1 | i
CCC1(C)Cc2ccccc2-c2nc(NCCCO)n(-c3ccc(C)cc3)c(=O)c21 (stereo not drawn) | i
CSc1cccc(NC(=O)CSc2nnc(N)s2)c1 | i
COc1ccc(Cl)cc1NC(=O)CN(c1c(C)cccc1C)S(C)(=O)=O | i
C/C=C/c1cnc2c(c1)C(=O)N([C@H](C)CO)C[C@H](C)[C@H](CN(C)Cc1ccccc1F)O2 | i
Cc1ccccc1-c1ccc2c(c1)O[C@@H](CN(C)C)[C@H](C)CN([C@@H](C)CO)S2(=O)=O | i
Cc1ccc(-c2ccc(CCC(=O)O)n2-c2ccc(N(C)C)cc2)cc1 | i
Cc1cc(C(F)(F)F)nc(SCC(=O)Nc2ccccc2C(F)(F)F)n1 | i
C=C1C(=O)O[C@H]2C[C@@H](C)[C@@H]3CCC(=O)[C@@]3(C)C[C@H]12 | i
COC(=O)COc1cccc(NC(=O)c2ccc(Cl)c(Cl)c2)c1 | i
O=C(CC1C(=O)NCCN1C(=S)Nc1ccccc1)Nc1ccc2c(c1)OCCO2 (stereo not drawn) | i
C[C@H](O)C#Cc1ccc2c(c1)O[C@H](CN(C)C(=O)CN(C)C)[C@@H](C)CN([C@H](C)CO)S2(=O)=O | i
Cc1nc(C)c(-c2ccnc(C34CC5CC(CC(C5)C3)C4)n2)o1 | i
Cc1sc2ncnc(SCC(=O)Nc3ccccc3-c3ccccc3)c2c1C | i
COc1cc(NC(=S)NCc2ccc(S(N)(=O)=O)cc2)c(OC)cc1Cl | i
O=C(CSc1ncn(-c2ccccc2)n1)Nc1ccc([N+](=O)[O-])cc1 | i
Cc1ccc(-c2csc3ncnc(SCC(=O)c4ccc(F)cc4)c23)cc1 | i
O=C(CSc1nc2ccccc2c(=O)[nH]1)Nc1ccccc1Cl | i
CC(C)CC#Cc1cnc2c(c1)C(=O)N([C@@H](C)CO)C[C@H](C)[C@@H](CN(C)CC1CCOCC1)O2 | i
Cc1ccc(-c2ccc3c(c2)O[C@@H](CN(C)C(=O)C2CCCCC2)[C@@H](C)CN([C@@H](C)CO)S3(=O)=O)cc1 | i
CCC(=O)Nc1ccc2c(c1)OC[C@@H](C)N(CCc1ccccc1)C[C@@H](C)[C@H](OC)CN(C)C2=O | i
Cc1nnc(SCC(=O)N2CCc3ccccc32)n1-c1ccccc1 | i
Continued.
SMILES | ID4 SMM
C[C@@H]1CN([C@H](C)CO)C(=O)c2cc(C3=CCCC3)cnc2O[C@@H]1CN(C)C(=O)c1ccccc1 | i
CN(C)CC(=O)Nc1ccc2c(c1)[C@H]1C[C@@H](CC(=O)NCCc3ccccc3)O[C@H](CO)[C@H]1O2 | i
Cc1cccc2c(C(=O)NCCc3ccc(S(N)(=O)=O)cc3)cc(-c3ccccc3Cl)nc12 | i
O=C(C[C@@H]1C=C[C@@H](NC(=O)c2ccccc2)[C@H](CO)O1)Nc1ccc(-c2ccccc2)cc1 | i
CCCNC(=O)N1[C@H](CO)[C@H](c2ccccc2)[C@@H]1C#N | i
O=C(O)CCc1nn2c3ccccc3n(CC(=O)c3ccccc3)c2nc1=O | i
CCOC(=O)C1=C(C)Nc2ncnn2C1c1c[nH]c2ccccc12 (stereo not drawn) | i
Cc1c(Cl)ccc2c(C(=O)NCCCn3cc(Br)cn3)cc(-c3ccncc3)nc12 | i
CN(C)C(=O)C[C@@H]1CC[C@H](NC(=O)c2ccc(F)cc2)[C@H](CO)O1 | i
C[C@H]1CN([C@@H](C)CO)C(=O)c2cc(C#CCN(C)C)cnc2O[C@@H]1CN(C)C(=O)c1ccc2c(c1)OCO2 | i
O=C(C[C@@H]1C=C[C@H](NC(=O)CCN2CCCCC2)[C@@H](CO)O1)Nc1ccc(-c2ccccc2)cc1 | i
C/C=C/c1ccc2c(c1)O[C@H](CN(C)C(=O)C1CC1)[C@H](C)CN([C@@H](C)CO)S2(=O)=O | i
CCN(CC(=O)Nc1cccc(Cl)c1C)S(=O)(=O)c1ccc(C)cc1 | i
CC(C)(C)c1ccc(OC(=O)CCN2C(=O)C3C4C=CC(C5CC45)C3C2=O)cc1 (stereo not drawn) | i
C[C@H](CO)N1C[C@H](C)[C@@H](CN(C)C)Oc2ncc(C#Cc3cccnc3)cc2C1=O | i
CCOc1cc(S(=O)(=O)NCCN2CCOCC2)ccc1F | i
C/C=C/c1cnc2c(c1)C(=O)N([C@@H](C)CO)C[C@@H](C)[C@@H](CN(C)Cc1ccccc1)O2 | i
COc1ccc(CNc2nc3nc(C)cc(=O)n3[nH]2)cc1OC | i
CC(C)C#Cc1cnc2c(c1)C(=O)N([C@@H](C)CO)C[C@H](C)[C@@H](CN(C)C(=O)c1ccccc1F)O2 | i
O=C(C[C@@H]1C=C[C@@H](NC(=O)c2cccc(F)c2)[C@@H](CO)O1)NCc1ccccc1 | i
COc1ccccc1C(NC(C)=O)c1c(O)ccc2ccccc12 (stereo not drawn) | i
CNC[C@H]1Oc2cc(C#Cc3ccccn3)ccc2S(=O)(=O)N([C@H](C)CO)C[C@H]1C | i
CCCN(C)C[C@H]1Oc2cc(C#CC3CCCCC3)ccc2S(=O)(=O)N([C@@H](C)CO)C[C@@H]1C | i
C[C@H]1CN([C@@H](C)CO)C(=O)c2cc(/C=C/c3ccccc3)cnc2O[C@H]1CN(C)C(=O)c1cccnc1 | i
CC(C)C#Cc1cnc2c(c1)C(=O)N([C@H](C)CO)C[C@@H](C)[C@@H](CN(C)Cc1ccccn1)O2 | i
Continued:
SMILES | ID4 SMM
COc1ccc(-c2cnc3c(c2)C(=O)N([C@H](C)CO)C[C@H](C)[C@H](CN(C)C(=O)C2CCOCC2)O3)cc1 | i
C[C@@H]1CN([C@@H](C)CO)C(=O)c2cc(-c3cccc(C#N)c3)cnc2O[C@H]1CN(C)C(=O)C1CCCCC1 | i
COc1ccc(NC(=O)Cc2coc3cc(C)cc(C)c23)c(OC)c1 | i
C[C@@H]1CN([C@H](C)CO)S(=O)(=O)c2ccc(C#CC3CC3)cc2O[C@H]1CN(C)Cc1ccccn1 | i
COc1ccccc1-c1ccc2c(c1)O[C@@H](CN(C)C(=O)c1cccnc1)[C@H](C)CN([C@@H](C)CO)S2(=O)=O | i
Cc1cc(Cn2ccc(C(F)(F)F)n2)c(C)c(-c2c(C#N)c(N)nc3c2CCCCC3)c1 | i
CNC[C@H]1Oc2ncc(-c3ccc(C)cc3)cc2C(=O)N([C@H](C)CO)C[C@H]1C | i
COC(=O)c1sccc1S(=O)(=O)Nc1ccc(-c2cn3c(n2)SCC3)cc1 | i
CC(C)CC#Cc1cnc2c(c1)C(=O)N([C@H](C)CO)C[C@@H](C)[C@@H](CN(C)Cc1ccccc1F)O2 | i
CCOc1cccc(-c2nnc(SCC(=O)n3c4c(c5ccccc53)CCCC4)n2C)c1 | i
C[C@H](CO)N1C[C@H](C)[C@@H](CN(C)C(=O)Nc2ccc3c(c2)OCO3)Oc2cc(C3=CCCC3)ccc2S1(=O)=O | i
Cc1ccc(C)c(NC(=O)C(C)N(c2ccc(C)c(C)c2)S(C)(=O)=O)c1 (stereo not drawn) | i
CC(C)(C)c1ccc(OCC(=O)Nc2cccnc2)c(Br)c1 | i
Cc1ccc(N(CC(N)=O)S(=O)(=O)c2ccc(Cl)cc2)cc1C | i
O=C(O)CCCc1ccccc1 | i
Cc1cc(C)c(OCC(O)CN2CCN(CCO)CC2)c(C)c1 (stereo not drawn) | i
O=C(N[C@H]1C=C[C@H](CC(=O)N2CCC(Cc3ccccc3)CC2)O[C@H]1CO)c1cnccn1 | i
C=C(CO)C1Cc2c(ccc3c(=O)c4c(oc23)COc2cc(OC)c(OC)cc2-4)O1 (stereo not drawn) | i
COc1ccc(-c2nnc(SCC(=O)Nc3ccc(Br)cc3C(C)C)o2)cc1 | i
Cc1ccc(C)c(S(=O)(=O)NCC(=O)Nc2ccc(F)c(Cl)c2)c1 | i
Cc1cccc(NC(=O)C2CC(=O)n3c(nc4ccccc43)N2)c1 (stereo not drawn) | i
Cc1ccccc1Cn1ccc(NC(=O)c2nn3cccnc3c2Cl)n1 | i
Cc1ccccc1-c1cnc2c(c1)C(=O)N([C@H](C)CO)C[C@H](C)[C@@H](CN(C)C(=O)c1ccccc1)O2 | i
CCOc1ccc2nc(SCC(=O)Nc3ccc(Br)cc3Cl)sc2c1 | i
COc1c(Cl)cc(C(=O)Nc2ccc(S(=O)(=O)Nc3cc(C)nc(C)n3)cc2)cc1Cl | i

Part of the list above in order of heavy-atom count, lowest first.
SMILES | ID4 SMM
O=C(O)CCCc1ccccc1 | i
CC(C)(C)c1ccc(OCC(=O)Nc2cccnc2)c(Br)c1 | i
Cc1cc(C)c(OCC(O)CN2CCN(CCO)CC2)c(C)c1 (stereo not drawn) | i
Cc1ccc(C)c(S(=O)(=O)NCC(=O)Nc2ccc(F)c(Cl)c2)c1 | i
CCOc1ccc2nc(SCC(=O)Nc3ccc(Br)cc3Cl)sc2c1 | i
Cc1ccc(C)c(NC(=O)C(C)N(c2ccc(C)c(C)c2)S(C)(=O)=O)c1 (stereo not drawn) | i
CNC[C@H]1Oc2ncc(-c3ccc(C)cc3)cc2C(=O)N([C@H](C)CO)C[C@H]1C | i
COc1c(Cl)cc(C(=O)Nc2ccc(S(=O)(=O)Nc3cc(C)nc(C)n3)cc2)cc1Cl | i
Cc1cc(Cn2ccc(C(F)(F)F)n2)c(C)c(-c2c(C#N)c(N)nc3c2CCCCC3)c1 | i
O=C(N[C@H]1C=C[C@H](CC(=O)N2CCC(Cc3ccccc3)CC2)O[C@H]1CO)c1cnccn1 | i
C[C@@H]1CN([C@H](C)CO)S(=O)(=O)c2ccc(C#CC3CC3)cc2O[C@H]1CN(C)Cc1ccccn1 | i
CC(C)CC#Cc1cnc2c(c1)C(=O)N([C@H](C)CO)C[C@@H](C)[C@@H](CN(C)Cc1ccccc1F)O2 | i
Cc1ccccc1-c1cnc2c(c1)C(=O)N([C@H](C)CO)C[C@H](C)[C@@H](CN(C)C(=O)c1ccccc1)O2 | i
COc1ccc(-c2cnc3c(c2)C(=O)N([C@H](C)CO)C[C@H](C)[C@H](CN(C)C(=O)C2CCOCC2)O3)cc1 | i
C[C@H](CO)N1C[C@H](C)[C@@H](CN(C)C(=O)Nc2ccc3c(c2)OCO3)Oc2cc(C3=CCCC3)ccc2S1(=O)=O | i

New compounds follow:
SMILES | ID4 SMM
OCCN1CCN(C(=S)NCc2ccco2)CC1 | i
COc1ccc(CCNc2nc(-c3ccccn3)cs2)cc1OC | i
O=C(C[C@H]1CC[C@@H](NC(=O)c2ccccc2)[C@H](CO)O1)Nc1ccc(-c2ccccc2)cc1 | i
CCCC#Cc1cnc2c(c1)C(=O)N([C@@H](C)CO)C[C@H](C)[C@@H](CN(C)CCC)O2 | i
C[C@H]1CN([C@@H](C)CO)C(=O)c2cc(C#Cc3ccccc3F)cnc2O[C@@H]1CN(C)C(=O)C1CCC1 | i
COCCNC(=O)C[C@H]1C[C@H]2c3cc(NS(C)(=O)=O)ccc3O[C@H]2[C@@H](CO)O1 | i
C[C@@H]1CN([C@@H](C)CO)C(=O)Cc2cc(NC(=O)C3CCCCC3)ccc2O[C@@H]1CN(C)CC1CC1 | i
CCOC(=O)c1ccc(NC(=O)CC2Nc3cccc4cccc(c34)NC2=O)cc1 (stereo not drawn) | i
CCCN(C)C[C@H]1Oc2ncc(-c3cccnc3)cc2C(=O)N([C@@H](C)CO)C[C@@H]1C | i
O=C(Cn1cc(C(=O)C2CC2)c2ccccc21)Nc1ccccc1C(F)(F)F | i
COc1cc(/C=C/C(=O)NCCSc2c[nH]c3ccccc23)cc(OC)c1OC | i
COc1ccc(S(=O)(=O)N(C)C[C@@H]2Oc3cc(-c4cccc(F)c4)ccc3S(=O)(=O)N([C@@H](C)CO)C[C@H]2C)cc1 | i
C[C@H](CO)N1C[C@H](C)[C@@H](CN(C)Cc2ccccn2)Oc2ncc(C#CC3CC3)cc2C1=O | i
Cc1[nH]c2ccccc2c1C(=O)CSc1ncn[nH]1 | i
CCCNC(=O)N(C)C[C@@H]1Oc2ncc(Br)cc2C(=O)N([C@@H](C)CO)C[C@H]1C | i
C/C=C/[C@@H](CCn1cc(CCO)nn1)[Si](C)(C)c1ccc(OC)cc1 | i
C[C@@H]1CN([C@@H](C)CO)C(=O)c2cc(-c3ccc(F)cc3)cnc2O[C@H]1CN(C)CC1CCOCC1 | i
Cc1ccc(-n2c(SCC(=O)Nc3ccc(F)c(F)c3)nnc2-c2ccc(Cl)cc2)cc1 | i
COc1ccc(-c2nnc(SCC(=O)Nc3cccc(C(F)(F)F)c3)n2-c2ccccc2)cc1 | i
Cc1ccc(-n2c(SCC(=O)Nc3cccc(C)c3C)nc3ccccc3c2=O)cc1 | i
CNC[C@H]1Oc2cc(-c3ccccc3F)ccc2S(=O)(=O)N([C@H](C)CO)C[C@H]1C | i
CC(=O)Nc1ccccc1-c1nc2ccccc2nc1OCc1ccc([N+](=O)[O-])cc1 | i
O=C(C[C@H]1C=C[C@@H](NC(=O)C2CCC2)[C@@H](CO)O1)NC1CCCCC1 | i
C[C@H]1CN([C@@H](C)CO)C(=O)c2cc(/C=C/c3ccccc3)cnc2O[C@@H]1CN(C)C(=O)c1ccccc1 | i
COc1ccc(OC)c(N(CC(=O)Nc2ccc(Br)cc2F)S(C)(=O)=O)c1 | i
Next results.
SMILES | ID4 SMM
O=C(CCSc1ccc([N+](=O)[O-])cc1)Nc1cccc2cccnc12 | i
CNC[C@@H]1Oc2cc(C#CC3(O)CCCC3)ccc2S(=O)(=O)N([C@@H](C)CO)C[C@@H]1C | i
Cc1ccc(C2OCC3(CO2)COC(c2ccc(C)cc2)OC3)cc1 (stereo not drawn) | i
C/C=C/c1ccc2c(c1)O[C@@H](CNC)[C@H](C)CN([C@@H](C)CO)S2(=O)=O | i
CC(=O)N(C)C[C@@H]1Oc2ncc(-c3ccc(C)cc3)cc2C(=O)N([C@@H](C)CO)C[C@H]1C | i
NCCCCNS(=O)(=O)c1ccc2c(Cl)cccc2c1 | i
C[C@H](CO)N1C[C@H](C)[C@@H](CN(C)C(=O)c2ccccn2)Oc2cc(C#Cc3ccc(F)cc3)ccc2S1(=O)=O | i
O=C(C[C@H]1CC[C@@H](NC(=O)C2CCC2)[C@H](CO)O1)NC1CCC1 | i

Screening results (PubChem)

This is a subset, so the mix of outcomes need not match the whole.
